Screening data (PubChem)
NS1 function inh = qHTS Assay for Inhibitors of Influenza NS1 Protein Function; S. cerevisiae slowed by influenza A NS1, growth recovery by OD600; Potency, µM (highest dose often 46.1 µM), for the others: top-dose activity, positive = more growth; actives 0.4% (n = 270,000); active means well fitted rising curve with a large enough effect; inconclusive means small, poorly fitted or top-dose-only effect; inactive means no such curve, though single readings can be large or run the other way; note: nearly all actives have a fitted effect of over 50% in size
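S. cerevisiae expressing influenza A NS1, grown in glucose, washed, then diluted 1:100 into pH 6.0 -URA galactose medium with 23 nl compound. Growth recovery read as OD600; NS1-free strain serves as control.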
StopGo reporter = High Throughput Screening for Foot and Mouth Disease Virus Antivirals; Potency, µM (series often up to 57.9 µM), inactives show top-dose signal change, negative = less light; human cells with a luciferase reporter of 2A StopGo recoding; control for the full effect not named in the record; actives 1.2% (n = 410,000); AID 1159524, 2015; active = well fitted falling curve with a large enough effect; inconclusive = small, poorly fitted or top-dose-only effect; inactive = no such curve, though single readings can be large or run the other way; tested in HEK293T cells; note: % is set by controls: 0 for no effect and ±100 for the full control effect; nearly all actives have a fitted effect of over 45% in size; luciferase light after 4 h
Cruzain inh Det = qHTS Assay for Promiscuous and Specific Inhibitors of Cruzain (with detergent). Cruzipain (Trypanosoma cruzi), P25779. purified cruzain, Z-FR-AMC fluorescence, 0.01% Triton. Potency, µM, inactives show max response, negative = inhibition, most hits filed as inhibitors. actives 0.43% (n = 200,000). AID 1478, 2009;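 note: plate controls were neutral wells for no effect and buffer without enzyme for full effect; nearly all actives have a fitted effect of over 40% in size; top concentration of the series not given in the record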
Target sequence (P25779 123-467 limits assumed): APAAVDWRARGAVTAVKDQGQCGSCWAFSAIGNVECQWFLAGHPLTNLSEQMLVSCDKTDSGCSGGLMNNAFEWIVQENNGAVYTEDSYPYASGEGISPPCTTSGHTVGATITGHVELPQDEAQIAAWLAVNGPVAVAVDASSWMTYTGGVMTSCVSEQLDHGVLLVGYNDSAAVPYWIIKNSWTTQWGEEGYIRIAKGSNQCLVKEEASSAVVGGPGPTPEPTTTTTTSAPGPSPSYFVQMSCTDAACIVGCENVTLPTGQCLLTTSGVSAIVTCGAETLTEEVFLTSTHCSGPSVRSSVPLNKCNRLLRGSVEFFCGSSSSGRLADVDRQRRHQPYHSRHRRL
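Purified cruzain (1.5 nM final) was preincubated with compounds for 15 min at room temperature in 100 mM sodium acetate pH 5.5, 5 mM DTT, 0.01% Triton X-100. Reaction started with 2 uM Z-FR-AMC; AMC fluorescence change over 60 s gave activity.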
RE007 growth inh = qHTS Assay for Inhibitors of the HIV-1 protein Vpr; Potency, µM (doses to about 92.2 µM), for the others: top-dose activity change, negative = less growth; S. pombe RE007 Vpr strain, BacTiter-Glo ATP luminescence, 24 h; control for the full effect not named in the record; actives 0.21% (n = 360,000); active = well fitted falling curve with a large enough effect; inconclusive = small, poorly fitted or top-dose-only effect; inactive = no such curve, though single readings can be large or run the other way;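 note: % is set by controls: 0 for no effect and ±100 for the full control effect; nearly all actives have a fitted effect of over 50% in size; the assay follows cell death caused by Vpr and the record does not say whether a fall means rescue or toxicity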
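Fission yeast RE007 carrying one integrated HIV-1 vpr copy, seeded at OD 0.01 in PMG+AL medium with 23 nL pinned compound. Grown 24 h at 30 degrees; viability read by BacTiter-Glo luminescence after 5 min.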
Cruzain noTriton = qHTS Assay for Promiscuous and Specific Inhibitors of Cruzain (without detergent). actives 2.3% (n = 200,000). purified cruzain, Z-FR-AMC fluorescence, no detergent. Cruzipain (Trypanosoma cruzi), P25779. Potency, µM, without a hit: max response, negative = inhibition, hits mostly inhibitors;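 note: plate controls were enzyme without inhibitor for no effect and buffer without enzyme for full effect; nearly all actives have a fitted effect of over 40% in size; top concentration of the series not given in the record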
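Detergent-free condition (0.00005% Triton X-100) in acetate buffer pH 5.5 with DTT. 1.5 nM enzyme and compound were pre-mixed 15 min, then 2 uM Z-FR-AMC substrate added; reaction progress from fluorescence change between first and third reads (60 s).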
SARS PLP yeast = qHTS of Yeast-based Assay for SARS-CoV PLP; S. cerevisiae expressing SARS-CoV PLpro, growth rescue; control for the full effect not named in the record; Potency, µM (top dose mostly 32.9 µM), for inactives: at the highest dose activity, positive = growth rescue; actives 0.19% (n = 330,000); AID 485353, 2010; active means well fitted rising curve with a large enough effect; inconclusive means small, poorly fitted or top-dose-only effect; inactive means no such curve, though single readings can be large or run the other way; note: 0% is about no effect; nearly all actives have a fitted effect of over 55% in size; growth read by luminescence after 48 h
Lassa entry inh = qHTS for Inhibitors of binding or entry into cells for Lassa Virus; Lassa virus pseudotype entry inhibition, cell reporter; control for the full effect not named in the record; Potency, µM (top dose mostly 37.9 µM), for inactives: at the top dose activity change, negative = inhibition, usual class: inhibitors; actives 1.2% (n = 300,000); AID 540256, 2011; active means well fitted inhibition curve with a large enough effect; inconclusive means small, poorly fitted or top-dose-only effect, or effect the other way; inactive means flat fitted curve, though single readings scatter; tested in HEK293 cells; note: % is set by controls: 0 for no effect and ±100 for the full control effect; nearly all actives have a fitted effect of over 50% in size; luciferase read-out
MARV entry inh = qHTS for inhibitors of binding or entry into cells for Marburg Virus | actives 1.8% (n = 300,000) | Potency, µM (doses to about 37.8 µM), inactives show top-dose activity change, negative = inhibition, most hits filed as inhibitors | Marburg virus pseudotyped entry inhibition, cell reporter; control for the full effect not named in the record; about a third of the inactives were read at about 46 µM; active = well fitted inhibition curve with a large enough effect; inconclusive = small, poorly fitted or top-dose-only effect, or effect the other way; inactive = flat fitted curve, though single readings scatter; tested in HEK293 cells; about a fifth of its hits are not listed in these tables; note: % is set by controls: 0 for no effect and ±100 for the full control effect; luciferase read-out
An asterisk follows results filed as active; ? = inconclusive; / = not tested or not shown; & = joins results of further samples; [ ] = remark or other dose. Unless noted, calls come from the whole dose curve; as a rule, active = well fitted curve in the direction sought with a large enough effect; inconclusive = small, poorly fitted or top-dose-only effect, or another doubt; inactive = no such curve, though single readings can be large; an effect the other way counts as inactive or inconclusive. Potency is the fitted concentration of half-maximal effect.

SMILES	NS1 function inh	StopGo reporter	Cruzain inh Det	RE007 growth inh	Cruzain noTriton	SARS PLP yeast	Lassa entry inh	MARV entry inh
Cc1ccc(NC(=O)C2CCN(S(=O)(=O)c3ccc4c(c3)CCCC(=O)N4)CC2)cc1N(C)C	-14%	?	-0.8%	4%	7%	8%	-4%&-2%[46.1 µM]	13%&13%[46.1 µM]
O=c1cc(CSc2nnc(COc3ccccc3)o2)c2ccccc2[nH]1	0%	-24%	1.1%	0%	-5%	0%	23µM*	?
Cc1ccc2c(c1)c1c(c(=O)n(-c3ccccc3C)c(=O)n1CC(=O)c1ccc(Cl)cc1)n2C	/	-24%	-0.5%	/	-11%	/	?	/
Cc1cc(C)cc(NC(=O)COC(=O)c2cc(=O)[nH]c(=O)[nH]2)c1	10%	-6%	/	0%	/	-1%	1%	?
COc1cc(OC)c(NS(=O)(=O)c2ccc3c(c2)NC(=O)CCS3)cc1Cl	/	-29%	-7.0%	/	2%	/	-28%[46.1 µM]	/
CCc1ccc(-c2nc(CSCC(=O)N3CCN(c4ccc(F)cc4)CC3)c(C)o2)cc1	/	?	-0.6%	/	-1%	/	21%[46.1 µM]	7%[46.1 µM]
NC(=O)C1CCN(C(=O)CN2CCCc3ccccc32)CC1	-1%	0%	-0.8%	5%	-10%	?	0%	13%
COc1ccc(OC)c(C2/C(=C(/O)c3ccccc3)C(=O)C(=O)N2Cc2ccco2)c1 (stereo not drawn)	4%	38%[activator]	-7.3%	-9%	4%	-30%	-20%	10%[46.1 µM]
Cc1cccc(N/C(N)=N/c2nc(C)c(Cc3ccccc3)c(=O)[nH]2)c1	1%	-10%	/	0%	/	0%	?	?
Cc1ccc(C)n1-n1c(C)nc2scc(-c3ccccc3)c2c1=O	5%	-11%	-5.8%	23%	11%	-13%	1%	?
COc1ccc(-n2ccnc2SCC(=O)Nc2ccc(F)cc2F)cc1	/	-22%	-3.8%	/	8%	/	-22%[46.1 µM]	/
Cc1nnc2n(C)c(=O)c3c4c(sc3n12)COC(C)(C)C4	/	6%	/	-15%	/	/	-8%	0%[46.1 µM]

Entries shown so far with an NH in an aromatic ring, in the order listed:
SMILES	NS1 function inh	StopGo reporter	Cruzain inh Det	RE007 growth inh	Cruzain noTriton	SARS PLP yeast	Lassa entry inh	MARV entry inh
O=c1cc(CSc2nnc(COc3ccccc3)o2)c2ccccc2[nH]1	0%	-24%	1.1%	0%	-5%	0%	23µM*	?
Cc1cc(C)cc(NC(=O)COC(=O)c2cc(=O)[nH]c(=O)[nH]2)c1	10%	-6%	/	0%	/	-1%	1%	?
Cc1cccc(N/C(N)=N/c2nc(C)c(Cc3ccccc3)c(=O)[nH]2)c1	1%	-10%	/	0%	/	0%	?	?

Other structures follow:
SMILES	NS1 function inh	StopGo reporter	Cruzain inh Det	RE007 growth inh	Cruzain noTriton	SARS PLP yeast	Lassa entry inh	MARV entry inh
CCOC(=O)N1CCC(N2CCCC(C(=O)c3cccc(OC)c3)C2)CC1 (stereo not drawn)	-4%	42%[activator]	/	-8%	/	-4%	/	/
O=C(c1cc(C(=O)N2CCOCC2)c2nc3ccccc3n2c1)c1cc(Cl)cc(Cl)c1O	7%	-3%	/	-19%	/	-1%	/	/
Cc1ccccc1C(=O)O	/	-20%	2.0%	0%	-15%	6%	/	/
O=C(Nc1ccnn1C1CCN(Cc2cc(Cl)ccc2O)CC1)c1cccnc1	5%	13%	/	-6%	/	-5%	20%[46.1 µM]	?
Cc1nn(-c2nnc(NCc3ccccc3)nn2)c(C)c1Br	-36%	32%[activator]	13µM*	/	?	-43%	26%	?
O=C(N/N=C\c1cccnc1)c1cc(-c2ccccc2)nc2c(Cl)cccc12	4%	?	/	0%	/	-3%	?	?
CCOc1ccc(NC(=O)c2cnc(N3CCCCC3)c3ccccc23)cc1	/	-24%	-8.4%	/	?	/	-29%[46.1 µM]	/
COn1c(-c2ccc(Cl)cc2Cl)nc2ncccc21	/	-16%	/	10%	/	0%	-11%	0%[46.1 µM]
CCOC(=O)OCC(=O)C1(O)CCC2C3CCC4=CC(=O)CCC4(C)C3C(O)CC21C (stereo not drawn)	/	-9%	/	-4%	/	/	9%[46.1 µM]	?
O=C(O)c1ccc(NC(=O)c2ccc(COc3ccccc3)o2)cc1	3%	11%	/	-3%	/	-1%	/	/
O=C(OCc1ccc(O)cc1)c1c(-c2ccsc2)oc2ccc(N3CCOCC3)cc12	21%	?	/	-13%	/	1%	/	/
c1ccc(CC2CCN(Cc3ccccn3)CC2)cc1	1%	1%	/	2%	/	0%	/	/
N=c1c2c3c(sc2nc2n1CCCCC2)CCCCC3	-6%	24%	-2.9%	-1%	-3%	8%	15%	?
O=C(NC1CCCC1)c1ccc(Br)o1	-10%	-9%	6.8%	-5%	6%	-7%	-1%	-6%
Cc1cc(S(=O)(=O)Nc2c(C)nn(C)c2C)c(Cl)cc1Cl	2%	-22%	/	2%	/	0%	-16%	-7%[14.2 µM]
Cc1ccc2nc(N3CCN(c4ccccc4)CC3)c(C=O)c(=O)n2c1	-1%	3%	/	15%	/	1%	?	?
N#C/C(=C\c1ccccc1OCC(=O)O)c1nc2ccccc2[nH]1	0%	13%	/	5%	/	-4%	/	/
Nc1nc(Br)c2ccccc2c1-c1ccccc1	/	-4%	/	-7%	/	0%	6%	-12%[46.1 µM]
O=C(N/N=C/c1sc(=O)[nH]c1-[n+]1ccc2ccccc2c1)c1ccccc1[O-]	1%	22%	/	1%	/	2%	/	/
COc1ccccc1C(=O)c1ccccc1C(=O)c1ccccc1	/	-9%	/	18%	/	/	-1%[46.1 µM]	11%[46.1 µM]
CC(=O)c1sc2nsc(SCCN3CCCC3)c2c1N	7%	9%	/	-8%	/	0%	-23%	?
COC(=O)c1sccc1NC(=O)c1c(Cl)cnn1C	-11%	-5%	/	-4%	/	4%	-1%[46.1 µM]	-1%[46.1 µM]
c1coc(-c2ccnc3ncnn23)c1	/	-14%	/	-10%	/	-1%	5%[46.1 µM]	5%[46.1 µM]
COc1ccc(S(=O)(=O)N2CCOC2CNC(=O)C(=O)NCCCc2ccccc2)cc1 (stereo not drawn)	-6%	-30%	/	2%	/	1%	?	-9%
O=C(O)c1ccc(Nc2cccc(F)c2)c([N+](=O)[O-])c1	-44%	-3%	/	3%	/	-1%	32%	?
Cc1cc(NC(=O)c2cc(-c3cccc(OCC(C)C)c3)nc3ccccc23)no1	14%	0%	/	2%	/	-3%	/	/
COCCCNC(=O)CSc1nc2ccccc2c(=O)n1CCc1ccc(S(N)(=O)=O)cc1	-3%	-17%	/	12%	/	-5%	-9%[46.1 µM]	17%[46.1 µM]
O=C(c1ccc2c(c1)CCN2S(=O)(=O)c1ccccc1)N1CCN(c2ccc(F)cc2)CC1	26%	-11%&-20%	-3.9%	-6%	18%	-5%	0%[46.1 µM]	7%&7%[46.1 µM]
CCCN(CCC)C(=O)Cn1nnc2sc(-c3ccccc3)cc2c1=O	/	-6%	-0.2%	/	0%	/	18%[46.1 µM]	-14%[46.1 µM]
CN(c1ncnc(N)c1[N+](=O)[O-])C1CCS(=O)(=O)C1 (stereo not drawn)	6%	-10%	/	8%	/	-4%	17%	3%
N#CC1=C(N)OC2=C(C(=O)CCC2)C1C1CC=CCC1 (stereo not drawn)	8%	/	2.1%	-10%	9%	-14%	1%	6%
CCCn1nnc(NC(=O)COc2ccc(C3CCCCC3)cc2)n1	-49%	-26%	-10%	8%	?	-8%	-18%	-5%&-5%
Cc1c(NC(=O)C(C)OC(=O)CC2CC3CCC2C3)c(=O)n(-c2ccccc2)n1C (stereo not drawn)	/	-19%	/	-18%	/	0%	-17%[46.1 µM]	3%[46.1 µM]
O=C(NCC1CCCO1)c1cc(-c2ccncc2)nc2ccccc12 (stereo not drawn)	/	-17%	/	-2%	/	4%	-7%	2%
O=C(NCc1ccccc1)c1cccc(N2CCCS2(=O)=O)c1	/	-8%	2.9%	/	6%	/	29%[46.1 µM]	/
COc1ccccc1CNC(=O)COc1ccccc1C	-41%	6%	/	-6%	/	-20%	-4%[46.1 µM]	10%[46.1 µM]
COc1ccccc1Cc1nc2ccccc2[nH]c1=O	/	38%[activator]	-0.3%	/	-6%	/	-29%[46.1 µM]	20%[46.1 µM]
O=C(O)COCC(=O)Nc1ccccc1-c1ccccc1	6%	14%	/	-10%	/	1%	0%	18%[46.1 µM]
CC(OC(=O)CCC(=O)c1ccc(Cl)s1)C(=O)NC1(C#N)CCCCC1 (stereo not drawn)	/	19%	/	-21%	/	1%	15%	20%
CCc1cc(C(=O)N(CC(C)C)c2c(N)n(Cc3ccccc3)c(=O)[nH]c2=O)sc1C	/	-14%	/	4%	/	-5%	?	?
Oc1ccc2ccccc2c1C=NCc1ccccc1	-7%	-17%	/	-25%	/	-3%	/	/
Cc1ccccc1NC(=O)C1C2CCC(O2)C1C(=O)O (stereo not drawn)	9%	-12%	0.2%	-3%	-2%	1%	-3%	-8%
CNC(=O)CCCCCNS(=O)(=O)c1ccc(C)cc1	2%	-12%	0.6%	-11%	-8%	8%	-2%	-5%
CSc1nnc(C(C)(C)C)c(=O)n1/N=C/c1ccc(Cl)cc1	6%	-9%	/	0%	/	0%	17%	-2%[14.2 µM]
COc1ccc(S(=O)(=O)n2nc(OC(C)=O)cc2N(C(C)=O)C(C)=O)cc1	4%	-14%	/	11%	/	0%	/	/
CC(Cc1ccccc1)NC(=O)C1CCCNC1=O (stereo not drawn)	-3%	/	-0.6%	-15%	-2%	1%	-7%	18%

No enrichment for hits; about 4.5% have a hit in one of these screens.
